Compound activity: PubChem, several laboratories
eIF4E 4G PPI = inhibitors of eIF4E and eIF4G interaction in translation initiation; P63073+Q04637; TR-FRET eIF4E-eIF4GI(517-606) binding, 2 h; inhibition, % at 21.7 µM; actives 0.37% (n = 220,000); AID 782;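 active = inhibition above about 30%, limit read from the data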;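 note: 0% = full FRET control wells and 100% = background wells lacking eIF4GI fragment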
Wee1 stabilizer = human Wee1 degradation inhibition, primary screen; P30291; HeLa Luc-Wee1K328M stability, luciferase luminescence; 100% = proteasome inhibitor MG132 effect; reporter increase, % at 5 µM; actives 1.2% (n = 220,000); AID 1321;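 active = activation above the mean of all tested compounds plus 3 SD, set per screening run, cut at about 8.8% in these data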;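 note: cells exposed to compound for 20 h before luminescence read; 0% = DMSO alone and 100% = MG132 at 30 µM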
Rad51 HR inh = Rad51 (human) homologous recombination inhibition. Q06609. hRad51 DNA strand exchange, fluorescence dequenching. inhibition, % at 10 µM. actives 0.085% (n = 200,000). AID 1385;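 active = inhibition above 40% at the single screening dose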;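 note: 0% = DMSO control wells and 100% = blanks with heterologous ssDNA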
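Test system: preformed human Rad51 ssDNA filaments. Compound dosing: single dose, 10 µM final compound. Incubation: filaments 15 min 37 °C, then compound 30 min. Technique: FRET fluorescence dequenching, excitation 485 nm, emission 520 nm. Read-out basis: percent inhibition from fluorescence, normalised to plate control and blank means. Benchmarks: plate controls and plate blanks.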
14-3-3 Bad PPI = disrupts binding of bovine 14-3-3 zeta to phospho-Bad peptide | inhibition, % at 21.7 µM | TR-FRET 14-3-3zeta/Dy647-pBad peptide displacement, 1 h | P63103 | actives 0.71% (n = 220,000);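 active = inhibition above about 70%, limit read from the data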;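 note: 0% = full 14-3-3 plus peptide FRET controls and 100% = background without 14-3-3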
FXIIa inh 1536 = blocks human coagulation factor XIIa protease activity; P00748; purified FXIIa, Boc-QGR-AMC fluorogenic substrate, 2 h; inhibition, % at 5 µM; actives 0.3% (n = 220,000); in the data active = inhibition above about 40%;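 note: 0% = enzyme with no compound and 100% = blank without enzyme; many of its hits are not listed in these tables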
Mdm2 ligase inh = Mdm2 E3 ligase (human) inhibition; signal enhancement, % at 5 µM; cell-based MDM2 ubiquitination luciferase reporter, 2 h; 0 = plate control, 100 = twice control, blank-subtracted; actives 0.11% (n = 210,000); AID 1230;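 active = signal enhancement of 30% or more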;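 note: luminescence tracks abundance of the self-degrading MDM2-luciferase fusion protein; higher signal means inhibition of MDM2 E3 ligase activity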
Target sequence (Q00987 whole entry, looked up, the tested form may be a part): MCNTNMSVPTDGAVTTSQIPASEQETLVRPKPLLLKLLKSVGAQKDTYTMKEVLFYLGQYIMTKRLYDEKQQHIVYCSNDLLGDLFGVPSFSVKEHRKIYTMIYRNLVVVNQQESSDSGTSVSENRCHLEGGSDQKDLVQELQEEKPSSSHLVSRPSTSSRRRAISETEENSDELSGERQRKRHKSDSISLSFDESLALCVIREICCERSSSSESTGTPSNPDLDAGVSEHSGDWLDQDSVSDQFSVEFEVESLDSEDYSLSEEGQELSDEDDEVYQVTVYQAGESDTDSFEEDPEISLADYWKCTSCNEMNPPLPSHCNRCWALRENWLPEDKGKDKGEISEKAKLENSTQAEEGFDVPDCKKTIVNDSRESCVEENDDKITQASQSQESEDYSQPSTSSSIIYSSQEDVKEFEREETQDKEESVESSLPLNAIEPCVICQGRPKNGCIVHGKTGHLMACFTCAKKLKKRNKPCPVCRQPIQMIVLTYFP
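System: stable MDM2–luciferase fusion reporter cells / Input: 2000 cells seeded into each well / Schedule: 4 h settle plus 2 h compound, 37 °C / Compound: single-point 5 µM / Buffer or medium: cells held in DMEM / Benchmarks: control and blank well means / Evaluation: percent signal gain over controls, blank-subtracted / Measured by: luciferase luminescence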
FXIa inh = factor XIa (human) inhibition. purified FXIa, Boc-Glu-Ala-Arg-AMC fluorogenic substrate. actives 0.14% (n = 220,000). inhibition, % at 5 µM. AID 798;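 active = inhibition of at least 40%; inactive = inhibition below 40%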;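 note: fluorescence of freed AMC excited at 355 nm; 0% = enzyme without compound and 100% = no enzyme blank; many of its hits are not listed in these tables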
p97 ATPase inh = human p97 ATPase inhibition; P55072; recombinant p97 ATPase, Kinase-Glo ATP luminescence, 3 h; inhibition, % at 8 µM; actives 0.42% (n = 220,000); in the data active = inhibition above about 15%;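 note: 0% = DMSO vehicle and 100% = wells lacking enzyme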
Starred values were filed as active, the others as inactive; · = no result given; [ ] = remark or other dose.

SMILES	eIF4E 4G PPI	Wee1 stabilizer	Rad51 HR inh	14-3-3 Bad PPI	FXIIa inh 1536	Mdm2 ligase inh	FXIa inh	p97 ATPase inh
O=S(=O)(c1cccc2nsnc12)N1CCN(c2ncccn2)CC1	3.7	-1.5	1.5	9.9	13.4	-4.9	-13.6	3.1
Cc1ccc(OCCNC(=O)/C=C/c2ccc([N+](=O)[O-])cc2)cc1C	-0.1	-2.9	-0.1	-6.0	1.1	-10.2	6.3	-3.9
O=C(COc1ccc(Cl)cc1)Nc1ccccc1CO	-5.8	0.1	17.3	2.3	2.6	-24.9	-15.1	-5.7
Cc1onc(-c2ccccc2Cl)c1C(=O)NNC(=O)C1CCN(Cc2ccccc2)CC1	1.6	5.7	-11.1	-7.3	9.2	-9.1	2.3	-3.6
CSc1ccc2c(c1)N(CCC1CCCCN1C)c1ccccc1S2 (stereo not given)	11.7	-1.7	7.2	5.6	8.2	·	-1.8	-6.0
CC1(C)CC2CC(C)(CN2C(=O)c2ccc([N+](=O)[O-])cc2[N+](=O)[O-])C1 (stereo not given)	4.8	5.2	-96.8	-5.3	8.7	-9.8	1.6	-1.8
COc1ccc(OC2C(=O)N(Cc3ccc4c(c3)OCO4)C2c2cccs2)cc1 (stereo not given)	-13.3	1.3	0.6	-4.6	5.0	-22.6	-3.6	-1.0
COCCN(CCOC)C(=O)CCn1c(=O)oc2ccccc21	-0.4	-1.4	-2.5	-0.6	12.1	10.4	12.7	5.6
CCOc1ccc(/C=N/NC(=O)Cc2cccs2)cc1	0.7	13.6*	·	-7.3	2.4	-9.8	-0.9	2.0
O=C(O)c1ccc(N=C2SCC(=O)N2Cc2ccccc2)cc1	1.6	-3.9	-2.5	-0.6	1.9	-5.7	-7.5	4.2
COc1c(Cl)cnn(-c2ccc(C)cc2)c1=O	2.7[fluorescence artefact?]	-1.6	-0.7	-3.5	11.2	-13.7	-2.8	-1.1
COc1ccc2[nH]c3c(C)c4ccncc4c(C)c3c2c1	33.4*	-0.7	47.5*	49.9	3.6	-29.5	-2.1	13.8
COCCCNC(=O)CC(NS(=O)(=O)c1ccc(C)cc1)c1ccc(OC)cc1 (stereo not given)	-3.4	-1.7	-8.1	2.0	-1.9	-11.3	-8.7	1.6

A different layout for 2 compounds above:
O=C(O)c1ccc(N=C2SCC(=O)N2Cc2ccccc2)cc1
  eIF4E 4G PPI: 1.6
  Wee1 stabilizer: -3.9
  Rad51 HR inh: -2.5
  14-3-3 Bad PPI: -0.6
  FXIIa inh 1536: 1.9
  Mdm2 ligase inh: -5.7
  FXIa inh: -7.5
  p97 ATPase inh: 4.2

CSc1ccc2c(c1)N(CCC1CCCCN1C)c1ccccc1S2 (stereo not given)
  eIF4E 4G PPI: 11.7
  Wee1 stabilizer: -1.7
  Rad51 HR inh: 7.2
  14-3-3 Bad PPI: 5.6
  FXIIa inh 1536: 8.2
  Mdm2 ligase inh: ·
  FXIa inh: -1.8
  p97 ATPase inh: -6.0

One compound at a time, from the list above. Values in the order: eIF4E 4G PPI | Wee1 stabilizer | Rad51 HR inh | 14-3-3 Bad PPI | FXIIa inh 1536 | Mdm2 ligase inh | FXIa inh | p97 ATPase inh
Profile of `O=S(=O)(c1cccc2nsnc12)N1CCN(c2ncccn2)CC1` : 3.7 | -1.5 | 1.5 | 9.9 | 13.4 | -4.9 | -13.6 | 3.1
Profile of `CCOc1ccc(/C=N/NC(=O)Cc2cccs2)cc1` : 0.7 | 13.6* | · | -7.3 | 2.4 | -9.8 | -0.9 | 2.0
Profile of `COc1ccc2[nH]c3c(C)c4ccncc4c(C)c3c2c1` : 33.4* | -0.7 | 47.5* | 49.9 | 3.6 | -29.5 | -2.1 | 13.8
Profile of `COCCCNC(=O)CC(NS(=O)(=O)c1ccc(C)cc1)c1ccc(OC)cc1` (stereo not given) : -3.4 | -1.7 | -8.1 | 2.0 | -1.9 | -11.3 | -8.7 | 1.6
Profile of `COc1c(Cl)cnn(-c2ccc(C)cc2)c1=O` : 2.7[fluorescence artefact?] | -1.6 | -0.7 | -3.5 | 11.2 | -13.7 | -2.8 | -1.1

An excerpt. The share of hits here may be higher or lower than overall.
